KAT2A inh: GCN5L2 (KAT2A) acetyltransferase inhibition. Q92830. GCN5L2 HAT assay, ThioGlo1 CoA-SH fluorescence. Potency, µM (titrated, usually from 58.9 µM), for the others: at the top dose activity change, negative = inhibition, most hits filed as inhibitors. 390,000 compounds, 0.21% hits; active = well fitted inhibition curve with a large enough effect; inconclusive = small, poorly fitted or top-dose-only effect, or another doubt; inactive = no such curve, though single readings can be large or run the other way
Target sequence (Q92830 whole entry, looked up): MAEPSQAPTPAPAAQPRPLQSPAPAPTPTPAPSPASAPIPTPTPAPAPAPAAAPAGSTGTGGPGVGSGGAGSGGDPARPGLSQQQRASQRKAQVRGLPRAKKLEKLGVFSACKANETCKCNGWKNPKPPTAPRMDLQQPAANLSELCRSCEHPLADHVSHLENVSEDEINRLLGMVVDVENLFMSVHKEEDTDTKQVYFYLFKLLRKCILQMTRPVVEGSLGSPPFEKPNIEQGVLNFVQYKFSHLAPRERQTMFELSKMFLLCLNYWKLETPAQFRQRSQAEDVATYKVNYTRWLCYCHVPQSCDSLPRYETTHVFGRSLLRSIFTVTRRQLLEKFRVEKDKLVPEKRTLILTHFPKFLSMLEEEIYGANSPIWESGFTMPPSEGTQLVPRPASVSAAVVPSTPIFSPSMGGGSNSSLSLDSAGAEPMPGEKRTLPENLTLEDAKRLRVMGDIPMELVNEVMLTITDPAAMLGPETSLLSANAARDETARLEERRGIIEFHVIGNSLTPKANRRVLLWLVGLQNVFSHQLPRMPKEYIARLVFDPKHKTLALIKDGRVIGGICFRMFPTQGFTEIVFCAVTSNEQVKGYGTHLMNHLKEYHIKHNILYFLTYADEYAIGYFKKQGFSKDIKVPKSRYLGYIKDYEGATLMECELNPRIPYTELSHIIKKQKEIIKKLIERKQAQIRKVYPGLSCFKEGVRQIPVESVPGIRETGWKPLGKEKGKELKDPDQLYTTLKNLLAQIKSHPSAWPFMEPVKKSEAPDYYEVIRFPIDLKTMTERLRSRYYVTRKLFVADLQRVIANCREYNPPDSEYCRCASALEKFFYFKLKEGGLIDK
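GCN5L2 (20 nM) in 50mM HEPES pH 7.5, 0.1mM EDTA, 0.01% Tween-20 preincubated 15 min with compounds at room temperature. Reaction started with H3(1-25) 75uM, acetyl-CoA 70uM, ThioGlo1 50uM; CoA-thiol fluorescence (Ex340/Em540) read at 0 and 20 min.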
The depositor's hits bear a star; ? = inconclusive; & = joins results of further samples. % is scaled to controls: 0 for no effect and ±100 for the full control effect; potency is read from the fitted curve at half-maximal effect. These rows are one share of the data, and most or all hits are left out here.

SMILES	KAT2A inh
CCNS(=O)(=O)c1ccc(CCC(=O)NCCC2=CCCCC2)cc1	1%
Cc1ccc(SC(C)C(=O)NCc2ccc(F)cc2)cc1 (configuration not stated)	-3%
Cc1nc2ccc(S(=O)(=O)NC(C(=O)N3CCn4c3nc3ccccc34)C(C)C)cc2s1 (configuration not stated)	-5%
CCCCCCCCCCCCCCCCCCOC[C@H](COP(=O)([O-])OCC[N+](C)(C)C)OC(C)=O	5%
COc1ccccc1CNC(=O)CCc1c(C)c2cc3c(C)c(C)oc3cc2oc1=O	-21%
CCc1cccc(C)c1NC(=O)CCCC(=O)O	0%
Cc1cc2nc[nH]c2cc1[N+](=O)[O-]	-2%
O=C(c1ccc(Sc2cccc(Cl)c2)c([N+](=O)[O-])c1)N1CCN(c2ccccn2)CC1	-6%
Cc1sc(NC(=S)NC(=O)C(C)(C)C)c(C(N)=O)c1C	2%
O=C(c1ccco1)N1CCN(C(=O)c2ccccc2OCc2ccccc2)CC1	2%
COC(=O)c1c(-c2ccccc2)noc1C	-1%
O=C(CNC(=O)c1ccc(Br)o1)NCc1ccc(F)cc1	-23%
O=C(OCc1ccccc1)N1CCCC1/C=C/CN1CCOCC1 (configuration not stated)	-2%
Cc1ccc(S(=O)(=O)CCC(=O)OC(C)C(=O)Nc2ccc(N3CCOCC3)cc2)cc1 (configuration not stated)	-3%
CCCCNC(=O)CSc1nc2ccccc2n1S(=O)(=O)c1ccc(Br)cc1	-4%
CC(=O)Nc1ccc(NC(=O)CSc2ccc3nnc(CCNC(=O)c4ccccc4)n3n2)cc1	2%
O=C(CSc1nccc(-c2cccs2)n1)Nc1cccc(Cl)c1	-8%
O=C(NCCN1CCCC1)c1ccc(CS(=O)(=O)c2c(Cl)cccc2Cl)o1	-1%
CCOC(=O)c1ccccc1OCc1cc(/C=N/NC(=O)c2cccnc2)ccc1OC	-2%
CCOc1ccc(CCNC(=O)c2cc3ccccn3n2)cc1OCC	-2%
O=C(CSCc1ccccc1)Nc1ccc(S(=O)(=O)Nc2ncccn2)cc1	-6%
COc1ccc(N2CCN(C(=O)CCc3c(C)nc4cc(-c5cccc(F)c5)nn4c3C)CC2)cc1	-7%
O=C(COC(=O)C1CC(=O)N(c2ccccc2)C1)c1ccccc1 (configuration not stated)	-11%
COc1cccc(CC(=O)Nc2ccccc2N2CCCC2)c1	2%

Next section; the last 6 above are carried over.
SMILES	KAT2A inh
CCOC(=O)c1ccccc1OCc1cc(/C=N/NC(=O)c2cccnc2)ccc1OC	-2%
CCOc1ccc(CCNC(=O)c2cc3ccccn3n2)cc1OCC	-2%
O=C(CSCc1ccccc1)Nc1ccc(S(=O)(=O)Nc2ncccn2)cc1	-6%
COc1ccc(N2CCN(C(=O)CCc3c(C)nc4cc(-c5cccc(F)c5)nn4c3C)CC2)cc1	-7%
O=C(COC(=O)C1CC(=O)N(c2ccccc2)C1)c1ccccc1 (configuration not stated)	-11%
COc1cccc(CC(=O)Nc2ccccc2N2CCCC2)c1	2%
CCc1cc2c(N[C@@H](C)C(=O)O)ncnc2s1	-4%
Cc1cc(Cl)ccc1OCC(=O)Nc1ccc(CN2CCOCC2)cc1	-5%
O=[N+]([O-])c1c(Nc2cccc(O)c2)cc(Cl)c2nonc12	-7%
CCC(=O)Nc1ccc(NC(=O)c2cccc3c(Br)cccc23)cc1	5%
CCC(NC(=O)Nc1nnc(C(F)(F)F)s1)(C(F)(F)F)C(F)(F)F	?
CCN(CC)S(=O)(=O)c1ccc(Cl)c(C(=O)N2CCc3ccccc32)c1	-8%
CCC(C)[C@H](NC(=O)OC(C)(C)C)C(=O)N/N=C/c1ccc2nccnc2c1 (some centres not stated)	1%
COC(=O)c1ccc(NS(=O)(=O)c2ccc(Cl)cc2)o1	-3%
CC(=O)NC(NC(C)=O)c1cccc(OCc2ccccc2)c1	2%
NC(=Nc1ccccc1)NC(=O)c1nc(Cl)c(N)nc1N	-10%&-22%&-16%
CCCc1nn(C)c(C(=O)Nc2ccc(CC)cc2)c1Cl	0%
O=C(CC1S/C(=N/N=C2CCCCCC2)NC1=O)Nc1ccccc1C(F)(F)F (configuration not stated)	0%
CCc1ccccc1NC(=O)c1nc2nc(C)cc(C(F)F)n2n1	-5%
Cc1ccc(C(=O)N2CCCC(Nc3ccc(F)cc3)C2)cc1C (configuration not stated)	-12%
CCN1CCN(c2ccc(S(=O)(=O)N(CC)CC)cc2[N+](=O)[O-])CC1	-6%
CC(C)(C)NC(=O)C(c1ccc(F)cc1)N(Cc1ccco1)C(=O)Cn1nnc(-c2cccs2)n1 (configuration not stated)	2%
O=C(NC1CC(=O)N(c2ccc(F)cc2)C1)c1ccc(S(=O)(=O)N2CCCC2)cc1 (configuration not stated)	-3%
COc1ccc(C)cc1NC(=O)CSc1ccc(Cl)cc1	-9%
CC(C)CNC(=O)c1ccc2c(c1)C(=O)N(C1CCCCC1)C2=O	0%
CC(=O)c1cc(C#N)c(NCc2ccccc2)nc1C	14%
CC1(C)SC(=S)N(Cc2ccc3c(c2)OCO3)C1N(O)C(=O)NC1CCCCC1 (configuration not stated)	-15%
Cc1ccc(CCN2CC(C(=O)NCc3ccco3)CC2=O)cc1 (configuration not stated)	?
CCC(C(=O)Nc1ncn[nH]1)(C(F)(F)F)C(F)(F)F	-5%
O=C(Nc1ccc2nc(SCC(=O)N3CCCC3)sc2c1)c1cccc(Cl)c1	-11%
O=C(N/C(=C\c1ccc(F)cc1)C(=O)N1CCCCCC1)c1ccccc1	-8%
CCN(Cc1ccccc1)C(=O)c1cc2c(s1)-c1c(C)cccc1OC2	-5%
CC(C)(C)C(=O)COC(=O)c1cccc(NC(=O)c2ccco2)c1	6%
Cc1n[nH]c(C)c1S(=O)(=O)N1CCc2ccccc2C1	-19%
O=C(Cc1ccccc1[N+](=O)[O-])NCc1ccccc1Cl	-6%
COc1ccccc1NC(=O)C1Cc2ccccc2CN1C(=O)c1ccco1 (configuration not stated)	-2%
CC/C(Cc1ccccc1)=N/NC(=O)c1cccc(Br)c1	-1%
O=C(CCCN1C(=O)C2CC=CCC2C1=O)Nc1cccc(F)c1 (configuration not stated)	-8%
Cc1ccc(N2CC(C(=O)NCCc3ccc(S(N)(=O)=O)cc3)CC2=O)cc1 (configuration not stated)	4%
COc1ccc(N2CCN(C3CCCCC3NS(=O)(=O)c3ccccc3)CC2)cc1 (configuration not stated)	0%
CCOc1cc(/C=N/NC(=O)c2cccnc2)ccc1OCc1ccc(C(=O)OC)o1	-10%
O=C(c1ccc2oc(CCCc3ccccc3)nc2c1)N1CCCC(CCCO)C1 (configuration not stated)	0%
CCC1=[N+](C)c2cccc3cccc(c23)N1C	-28%
COc1ccc(NC(=O)c2cc3sccc3n2Cc2ccc(F)cc2)cc1OC	3%
CCOC(=O)C1=C(COC(=O)c2ccc(C)c(S(=O)(=O)N3CCOCC3)c2)NC(=O)NC1C (configuration not stated)	1%
O=C1Cc2ccccc2C(=O)N1OCc1ccc(Cl)cc1	-1%
Cc1nc(SCN2C(=O)c3ccccc3C2=O)n[nH]1	0%
COCCN(CCOC)C(=O)c1ccc(SCc2ccc(C)cc2)c([N+](=O)[O-])c1	-13%
CN(C)/C=N/c1cc(=O)n(C)c(=O)n1Cc1ccccc1	-1%
S=C(NCc1ccco1)N1CCN(c2ccccc2Cl)CC1	-13%
Fc1ccc(CNC(=S)Nc2cccc(Cl)c2)cc1	-4%
CSc1ccc(/C=C/C(=O)OCC(=O)N2CCN(S(=O)(=O)c3ccc(C)cc3C)CC2)cc1	-20%
COc1cccc(-c2csc(N3CCN(C(=O)Nc4ccc(F)cc4)CC3)n2)c1	-5%
CCOC(=O)c1cc(C#N)c(N2CCN(C)CC2)nc1-c1ccccc1	1%

Molecules shown so far with an NH in an aromatic ring:
SMILES	KAT2A inh
Cc1cc2nc[nH]c2cc1[N+](=O)[O-]	-2%
CCC(C(=O)Nc1ncn[nH]1)(C(F)(F)F)C(F)(F)F	-5%
Cc1n[nH]c(C)c1S(=O)(=O)N1CCc2ccccc2C1	-19%
Cc1nc(SCN2C(=O)c3ccccc3C2=O)n[nH]1	0%

A second format for 2 compounds above:
compound,KAT2A inh
O=C1Cc2ccccc2C(=O)N1OCc1ccc(Cl)cc1,-1%
S=C(NCc1ccco1)N1CCN(c2ccccc2Cl)CC1,-13%

Next part.
SMILES	KAT2A inh
CN=C(NC1CCCCC1)c1ccc(Cl)cc1	0%
CCO[C@@H]1OC(C(=O)N2CCOCC2)=C[C@H](c2coc3ccccc3c2=O)[C@H]1CCCO	0%
COc1ccc(CNC(=O)CCc2ccc(S(=O)(=O)N3CCCCCC3)cc2)cc1OC	-2%
Cc1ccc(N(C(=O)c2csnn2)C(C(=O)NCc2ccccc2)c2ccccn2)cc1 (configuration not stated)	-1%
COc1ccc(NC(=S)N2CCN(c3ccccn3)CC2)cc1	2%
CC(C)(C)NC(=O)C(=O)NNC(=O)COc1ccccc1	-1%
COc1ccc(C2=NOC(C(=O)NCC(C)C)C2)cc1 (configuration not stated)	-9%
CCCc1nnc(N2C(=O)c3cccc4cccc(c34)C2=O)s1	4%
O=C(CN(Cc1ccc(Br)cc1)S(=O)(=O)c1ccccc1)NCc1ccncc1	-5%
CC(Sc1nnc(Cc2cccs2)n1C1CCCCC1)C(N)=O (configuration not stated)	-2%
CCOC(=O)N1CCN(C(=O)c2ccc(CS(=O)Cc3ccccc3Cl)o2)CC1 (configuration not stated)	-1%
CCOC(=O)Cn1c(C(C)=O)nc2ccccc21	-4%
COc1ccc([C@@H]2C(C#N)=C(N)S[C@@H](c3ccccc3)[C@@H]2[N+](=O)[O-])cc1	-10%
COc1cccc(C(=O)NC2CC3CCCC(C2)N3CC(=O)Nc2ccc(N(C)C)cc2)c1 (configuration not stated)	-5%
COc1cccc(C(=O)Nc2cccc(-c3nnc(-c4ccco4)o3)c2)c1	0%
CCN(CC)S(=O)(=O)c1cc(C(=O)Nc2ccccc2C(=O)O)ccc1OC	-5%
CC1CCN(C(=O)CNC(=O)Cn2ccc3ccccc3c2=O)CC1	-1%
O=C(NCC1CCCO1)C(=O)N/N=C/c1cccc(Cl)c1 (configuration not stated)	-5%
O=C(c1ccc2c(c1)OCO2)N(Cc1cccs1)C1(C(=O)NC2CCCCC2)CCCCC1	-7%
COC1(OC)N=C(NC(=O)Nc2ccccc2)C2(C#N)C(c3ccccc3)C12C#N (configuration not stated)	0%
O=C(COc1cccc2cccnc12)Nc1ccccc1N1CCOCC1	-5%
COC(=O)c1cc(Cl)c(NS(=O)(=O)c2ccccc2)cc1OC	3%
COc1ccccc1NC(=O)CSc1nnnn1-c1ccc(C(=O)O)cc1	4%
COc1ccc(/C=N/Nc2nc(-c3ccc(Cl)cc3)cc(C(F)(F)F)n2)cc1OC	-15%
O=C(Nc1ccc(Br)cc1)Nn1cnnc1	-1%
COc1ccc(N2CCN(Cc3nc4c(c(=O)n(C)c(=O)n4C)n3C(C)C(C)=O)CC2)cc1 (configuration not stated)	5%
COC(=O)CSc1nnc(CNS(=O)(=O)c2ccc(Cl)cc2)n1C	3%
CCOC(=O)C1CCN(C(=O)C2CCN(c3ncnc4c3nc3n4CCCCC3)CC2)CC1	-22%
Cc1ccc(CSC2=Nc3ccccc3C3=NC(CC(=O)NC4CCCCC4)C(=O)N23)c(C)c1 (configuration not stated)	0%
CCn1nnnc1SCC(=O)c1cc(Cl)ccc1OC	-8%
O=C(CN1C(=O)c2ccccc2C1=O)NCC1COc2ccccc2O1 (configuration not stated)	-12%
Fc1ccc(-c2nnc3ccccn23)cc1	-11%
COc1cccc(NC(=O)C2CCN(S(=O)(=O)c3cccc4nonc34)CC2)c1	2%
O=C(Nc1cccc(S(=O)(=O)N2CCCCC2)c1)C1=NN(c2ccccc2)C(=O)CC1	-9%
Cc1cccc(OCc2nnc(SCc3nc4cc(C(F)(F)F)ccc4c(=O)[nH]3)o2)c1	-4%
CCN1C(=O)C(=O)N(CC(=O)Nc2cccc(C(F)(F)F)c2)C1=O	4%
CSCC(=O)Nc1nc(-c2ccc3c(c2)OCCO3)cs1	-10%
COc1ccc2c(c1)C(C)CC(C)(C)N2C(=O)CSc1nc2ccccc2s1 (configuration not stated)	-8%
Cn1cccc1/C=C1\SC(=O)N(CC(=O)Nc2ccc(Cl)cc2)C1=O	-5%
COc1ccccc1C(=O)NC(=S)N1CCc2ccccc21	-7%
COc1cc(NC(=O)c2nc(-c3ccc(Cl)cc3)n3c2CCCCC3)cc(OC)c1OC	-12%
Cc1cc(C)cc(N(C(=O)c2cccs2)C2C=CS(=O)(=O)C2)c1 (configuration not stated)	-5%
O=C(Nc1ccon1)c1ccc(Br)o1	-2%
CCOc1ccccc1NS(=O)(=O)c1cc2c3c(c1)C(C)C(=O)N3CCC2 (configuration not stated)	-3%
CCCn1c(SCC(=O)N2CCCc3ccccc32)nnc1-c1ccco1	-4%
O=C(CN1C(=O)/C(=C/c2cccc(Br)c2)SC1=S)NCCCN1CCOCC1	-7%
COc1ccc(S(=O)(=O)Nc2ccccn2)cc1C	-1%
COCCN(CCOC)C(=O)COC(=O)c1ccc(Cl)c(S(=O)(=O)N(C)c2ccccc2)c1	-10%
C(=C/c1ccnc2nc(SC/C=C/c3ccccc3)nn12)/c1ccccc1	-7%
